Menin MLL FP FL: menin-MLL binding inhibition, fluorescein peptide; FP activity change, % at 61.4 µM; Fluorescence polarization, fluorescein-MLL peptide displacement from menin; 290,000 tested, under 10 active; AID 1766; inconclusive = falling polarisation curve, or a change in total fluorescence; inactive = total fluorescence flat and polarisation flat or rising; no compound was filed as active; the % refers to the polarisation; negative = inhibition;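 note: % of control where 0% means no effect; inhibitors lower the polarisation; unlabelled MLL peptide was the positive control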
TRPML1 agonist: agonists of human TRPML1 channel | TRPML1-expressing cells, Ca2+ dye fluorescence, FDSS; host cell line not named in the record; reference of the full effect not given here | activation, % (concentration not given with the values) | hit rate 0.12% among 410,000 | AID 624414; in the data active = activation above about 50%; inconclusive = about 30% to 50%; inactive = below about 30%; note: 0% is about no effect; the text of the record puts the active cut at 80%
Target sequence (Q9GZU1 whole entry, looked up): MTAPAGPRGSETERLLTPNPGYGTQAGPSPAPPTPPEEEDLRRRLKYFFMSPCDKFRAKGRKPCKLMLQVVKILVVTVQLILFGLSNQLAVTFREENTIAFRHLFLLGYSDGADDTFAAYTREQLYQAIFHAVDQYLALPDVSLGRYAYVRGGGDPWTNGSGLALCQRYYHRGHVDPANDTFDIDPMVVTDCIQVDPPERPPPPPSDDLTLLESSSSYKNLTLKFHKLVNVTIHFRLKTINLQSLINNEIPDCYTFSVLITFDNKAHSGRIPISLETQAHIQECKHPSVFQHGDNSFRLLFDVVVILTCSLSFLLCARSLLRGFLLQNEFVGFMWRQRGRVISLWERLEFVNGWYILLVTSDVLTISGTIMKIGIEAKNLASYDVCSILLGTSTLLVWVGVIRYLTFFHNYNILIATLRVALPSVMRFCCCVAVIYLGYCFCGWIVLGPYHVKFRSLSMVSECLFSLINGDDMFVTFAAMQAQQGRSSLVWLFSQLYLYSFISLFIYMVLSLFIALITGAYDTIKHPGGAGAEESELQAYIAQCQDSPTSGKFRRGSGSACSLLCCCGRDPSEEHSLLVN
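Tetracycline-induced TRPML1-DL cells are seeded and incubated overnight before loading with a no-wash Ca2+ dye and quencher. Agonist activity is taken from the 110 s fluorescence read following compound pin-transfer on an FDSS, before EC80 54-4 challenge.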
gsp ag: gsp mutant agonism; gsp mutant cells, cAMP HTRF, 30 min; control for the full effect not named in the record; Potency, µM (top dose mostly 76.9 µM), inactives show top-dose activation (cAMP increase), hits mostly activators; hit rate 0.13% among 340,000; AID 624287; active = well fitted activation curve with a large enough effect; inconclusive = small, poorly fitted or top-dose-only effect, or another doubt; inactive = no such curve, though single readings can be large or run the other way; cell line not stated here;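 note: phosphodiesterase inhibitor Ro 20-1724 added with compounds to block cAMP breakdown; potency is the fitted concentration of half-maximal effect; nearly all actives have a fitted effect of over 60% in size; about a fifth of the inactives were tested at one dose only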
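Cells stably selected in G418 were plated at 2000/well, grown 16-24 hr, then given compounds in DMSO with the PDE inhibitor […] (300 uM solution added) for 30 min at 37C; cAMP was read by HTRF.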
TRPML1 blocker: blocks the human TRPML1 channel | Q9GZU1 | TRPML1-inducible cells, Ca2+ dye fluorescence, FDSS; hits give low values; inhibition of EC80 agonist-evoked calcium signal | activity change, negative = inhibition, % (concentration not given with the values) | hit rate 0.02% among 390,000 | AID 624415; in the data active means activity change below about -50%; inconclusive means about -30% to -50%; inactive means above about -30%;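 note: stimulus is agonist 54-4 at its EC80 concentration; % is set by controls: 0 for no effect and ±100 for the full control effect; compound concentration not given in the record; the text of the record puts the active cut at -80%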
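Calcium fluorescence in TRPML1-DL cells induced overnight with Tet: a 110 s read after compound pin addition, then a 110 s antagonist read after challenge with 54-4 at 4 uM final (EC80).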
gsp antag: antagonizes gsp, the McCune-Albright syndrome mutation | hit rate 0.4% among 340,000 | gsp-mutant cells, cAMP HTRF, 30 min; control for the full effect not named in the record | Potency, µM (doses to about 76.9 µM), for inactives: at the top dose activity change, negative = inhibition, actives largely listed as inhibitors; active = falling curve of any shape with a large fitted effect; inconclusive = falling curve, mostly with a smaller effect; inactive = flat or rising curve; cell line not stated here;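 note: intracellular cAMP measured with PDE inhibitor Ro 20-1724 present during compound exposure; potency is the fitted concentration of half-maximal effect; % is set by controls: 0 for no effect and ±100 for the full control effect; nearly all actives have a fitted effect of over 65% in size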
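Cells in G418 medium, seeded 16-24 h, 37C; buffer exchange to DPBS + 1 mM CaCl2, 0.5 mM MgCl2, 0.05% BSA; cpds in DMSO + […] (300 uM stock), 30 min 37C; HTRF cAMP detection.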
ClpP mod: qHTS Assay for Activators of ClpP. ATP-dependent Clp protease proteolytic subunit (Bacillus subtilis (strain 168)), P80244. purified B. subtilis ClpP, FRET peptide cleavage, 20 min. Potency, µM (top dose mostly 57.5 µM), for inactives: at the highest dose activity change, negative = active. hit rate 1.9% among 340,000. AID 651965, 2013; active = well fitted falling curve with a large enough effect; inconclusive = small, poorly fitted or top-dose-only effect; inactive = no such curve, though single readings can be large or run the other way; note: potency is the fitted concentration of half-maximal effect; the source files actives as falling curves though it sought activators and does not explain the sign; nearly all actives have a fitted effect of over 65% in size; many hits overshoot -100%
Target sequence (P80244 whole entry, looked up): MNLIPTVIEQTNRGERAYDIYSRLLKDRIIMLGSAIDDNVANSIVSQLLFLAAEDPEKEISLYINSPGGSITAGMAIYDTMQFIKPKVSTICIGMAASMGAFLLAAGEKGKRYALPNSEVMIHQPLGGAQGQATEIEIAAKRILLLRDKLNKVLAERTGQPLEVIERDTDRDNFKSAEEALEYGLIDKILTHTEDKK
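ClpP 10 microg/mL final, pH 8 Tris/KCl buffer with BSA, glycerol, Tween-20; compound pinned in; FRET-FV substrate; RT 20 min; Ex320/Em430; ΔFRET vs ADEP 5.8 microM, DMSO, no enzyme.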
Starred values were filed as active, the others as inactive; ? = inconclusive; · = no result given; [ ] = remark or other dose.

Order of values: Menin MLL FP FL, TRPML1 agonist, gsp ag, TRPML1 blocker, gsp antag, ClpP mod
CCN(CC)S(=O)(=O)c1ccc(O)c(C(=O)OCC(=O)Nc2ccc(OC(F)(F)F)cc2)c1
  3.2, 0.8, 9.2%, -1.6, -13.7%, ·
Cc1nonc1C1CCCN1Cc1nc(-c2ccc(F)cc2F)oc1C (centres undefined)
  10.6, 1.1, 17.6%, 77.0, ?, -0.7%
O=C1NC2(CCCCC2)Cc2ccccc21
  0.3, -0.2, -9.7%, 7.2, 5.5%, -5.9%
CC(=O)Nc1cccc(NC(=O)CSc2nc(=O)n(Cc3ccccn3)c3c2CCC3)c1
  ·, -0.2, 6.2%[15.4 µM], -8.2, 3.8%, ·
O=C(O)CCS(=O)(=O)c1nc(-c2cccs2)cc(C(F)(F)F)n1
  -0.9, 2.9, 40.4%, 20.4, -1.2%, 14.1µM*
Cc1cccc(OCC(=O)NCc2n[nH]c(=O)c3ccccc23)c1
  ·, 0.7, -17.2%[15.4 µM], 29.4, 0.1%, -1.5%
O=C(CSc1nc2sc3c(c2c(=O)[nH]1)CCCC3)NCCO
  6.8, -1.3, 9.3%, 2.3, 2.1%, 3.4%
O=C1C(=O)N(CCCN2CCOCC2)C(c2ccc(Cl)cc2)/C1=C(\O)c1ccc2c(c1)OCCO2 (centres undefined)
  ·, 0.5, 11.2µM*, -12.9, 27.9%, 0.8%
COC(=O)C(C(=O)OC)C(C(C)C)C(C(=O)OC)C(=O)OC
  1.6, -0.8, -19.2%, -10.6, 4.1%, -9.8%
COc1ccc2c(C)c(Cl)c(=O)oc2c1
  -1.2, 0.0, -6.7%, -11.4, 7.3%, -9.0%
CCN(CC)c1nc(C)nc2c1sc(=S)n2C
  0.4, 1.4, 9.8%[15.4 µM], 5.3, -2.7%, -4.5%
O=C(COC(=O)C1CCC1)Nc1cccc(Cl)c1
  ·, 0.5, 12.9%[15.4 µM], 23.1, 5.2%, ·
Cc1ccc(O)c(/C=N/NC(=O)COc2ccc3c(C)cc(=O)oc3c2)c1
  1.9, 5.0, 20.2%, 6.9, -1.2%, 3.7%
COc1cccc(NC(=O)CC2COc3ccccc3O2)c1 (centres undefined)
  4.3, 0.4, 17.2%, -7.4, -2.0%, -0.8%
O=C(CCc1ccccc1)Nc1nnc(-c2ccc3c(c2)OCCO3)o1
  2.0, 0.1, -1.8%[15.4 µM], -15.3, -1.0%, 2.0%
Cc1sc2ncnc(N(C)Cc3ccco3)c2c1C
  1.7, -1.7, ?, -6.6, -4.0%, -1.2%
Cc1ccc(OCC(=O)Nc2ccc3c(c2)OCO3)c(C)c1
  1.2, 3.1, -6.1%[15.4 µM], -9.9, -8.9%, ·
O=c1oc2ccccc2c(NCCO)c1[N+](=O)[O-]
  -7.8, 2.1, -18.2%, 3.6, 0.1%, 2.3%
COc1ccc(OCC(=O)Nc2cc(-c3ccccc3F)nn2-c2ccccc2)cc1
  ·, 1.2, ·, -5.0, ·, -1.9%
CC(=O)c1ccc(NC(=O)CCSc2nc(-c3ccco3)cc(C(F)(F)F)n2)cc1
  ·, 1.4, ·, 2.0, ·, 7.4%
CCOc1ccc(C(=O)NCCn2cc(SCC(=O)NCCc3ccc(OC)c(OC)c3)c3ccccc32)cc1
  ·, 0.5, ·, 13.6, ·, -0.9%
CCN(CC)C(=O)CSc1nc2ccccc2c(=O)n1OC(C)C
  2.2, 1.3, 25.0%, -4.7, -26.2%, -4.2%
O=C1NC(=O)/C(=C/c2cccc3ccccc23)S1
  -3.5, -0.5, -27.2%, -12.0, -25.6%, ·
O=C(COc1ccc(C(=O)c2ccccc2)cc1)NCC(=O)Nc1ccccc1Br
  5.6, 0.6, 9.2%, 12.9, -14.8%, 0.5%
COc1cccc(CNc2ncn[nH]2)c1OCc1ccccc1F
  6.6, -1.1, 3.5%[15.4 µM], 1.9, 17.9%, -1.9%
Cc1ccc(SCC(=O)NCCc2ccccc2)cc1
  0.0, -0.8, -25.8%, 20.0, 0.3%, ·
S=C(NCCCN1CCOCC1)NC1CC1
  2.2, 0.0, -13.9%, 30.8, -5.8%, 0.6%
N#C/C(=C/c1ccc(OC(=O)c2ccc(Br)s2)cc1)c1nc2ccccc2[nH]1
  ·, -0.4, 22.7%, 3.0, -0.3%, ·
O=C1CS/C(=N\N=C\c2ccco2)N1c1ccccc1
  14.5, -0.3, 12.4%, 31.1, -7.7%, ·
Cn1ccsc1=NC(=O)c1cc(S(=O)(=O)N2CCOCC2)ccc1F
  ·, 0.9, 6.9%, 29.2, 3.8%, 0.8%

Some values from above.
COc1cccc(CNc2ncn[nH]2)c1OCc1ccccc1F in gsp ag shows 3.5%[15.4 µM]
Cc1ccc(O)c(/C=N/NC(=O)COc2ccc3c(C)cc(=O)oc3c2)c1 in Menin MLL FP FL shows 1.9

The listing continues.
Order of values: Menin MLL FP FL, TRPML1 agonist, gsp ag, TRPML1 blocker, gsp antag, ClpP mod
CC1=C(C(=O)NCCc2ccc(C)cc2)C2(CCC(C)CC2)OC1=O (centres undefined)
  0.1, -0.5, -49.2%[inhibitor], 4.0, -0.3%, -0.6%
O=C(NCCCNC(=O)c1ccccn1)c1ccc(F)cc1
  5.9, 0.6, ?, 9.1, 6.9%, ·
CCOC(=O)c1cc(-c2ccc(C)cc2)n(CC(=O)NCc2ccco2)c1C
  4.4, -0.5, 7.2%, -13.4, 3.7%, -1.9%
CN(C1CCCCC1)S(=O)(=O)c1ccc2c(c1)c(=O)c(C(=O)NCc1ccc(Cl)cc1)cn2C
  ·, -0.7, ·, 1.6, ·, -0.1%
C/C(CC(=O)Nc1ccccn1)=N\NC(=O)C(=O)Nc1cccc(Cl)c1C
  -0.2, -1.5, -23.5%, 10.9, -0.8%, 30.9%
Cc1nc([N+](=O)[O-])cn1CC(=O)Nc1ccc(Cl)cc1
  -1.7, -0.5, -32.1%[inhibitor], -7.1, 7.8%, ·
Cc1ccccc1-n1ncc2c1CC(C)(C)CC2NC(=O)CCN1CCCCC1=O (centres undefined)
  ·, 1.9, 2.5%, -15.0, 2.9%, -1.6%
COc1ccccc1CCNC(=O)CC1C(=O)NCCN1CCCc1ccccc1 (centres undefined)
  2.5, -0.6, 6.3%, 10.7, 1.4%, -20.2%
CC(=O)NNC(=S)NC(=O)c1cccc([N+](=O)[O-])c1
  6.0, -0.3, -0.3%, -3.0, 4.9%, -16.1%
O=C(Nc1c2c(nn1-c1ccccc1)CSC2)c1ccc(N2C(=O)CCC2=O)cc1
  0.7, 1.7, -29.9%, 7.4, 2.4%, -4.1%
Cn1c(=O)[nH]c(=O)c2c1nc(N1CCCC1)n2CCO
  1.8, -0.1, -52.8%[inhibitor], 17.2, -2.4%, ·
O=C(N/N=C/c1cc(Br)cs1)c1ccccc1[N+](=O)[O-]
  -1.4, -1.1, 5.3%[15.4 µM], -5.8, 3.0%, 0.6%
Cc1cccc(C(=O)NNC(=O)c2ccc(NS(=O)(=O)c3cccs3)cc2)c1C
  ·, 0.3, 0.3%, 11.4, 7.9%, -2.3%
Cc1nc2ccc(NC(=O)COc3ccccc3F)cc2s1
  ?, 0.2, ?, 25.7, -8.8%, ·
N#Cc1nc(-c2ccco2)oc1N1CCN(Cc2ccccc2)CC1
  -1.8, 0.0, 7.1%, 1.9, 10.4%, ?
O=C(CSc1cn(CC(=O)N2CCCCC2)c2ccccc12)Nc1ccccc1
  ·, -0.5, ·, 26.2, ·, -0.2%
CCOCN(C(=O)Cn1cnc2cc(C)c(C)cc21)c1c(C)cccc1CC
  ·, 2.3, ·, -12.7, ·, 0.9%
O=C(CSC(=S)N1CCCCC1)Nc1ncc2c(n1)CCCC2=O
  -1.0, 0.5, -0.8%[15.4 µM], 6.0, -5.7%, ·
Cc1cccc(Oc2ccc(NC(=O)CCC(=O)OCC(=O)c3ccc(Br)cc3)cc2)c1C
  ·, -0.2, ·, 22.0, ·, -1.9%
COc1ccc(CSCC(=O)Nc2ccc(S(=O)(=O)N3CCCCCC3)cc2)cc1
  1.2, 0.6, -3.4%, 6.8, -3.8%, 2.6%
COc1cccc(CNC(=O)c2cccc(NC(=O)c3nsc4ccccc34)c2)c1
  ·, 2.7, ·, -2.4, ·, -26.6%
Cc1c(Cl)cccc1NC(=O)NCc1c(-n2cccc2)sc2c1CCCC2
  ·, -0.4, ·, -1.9, ·, 1.1%
O=C(COC(=O)COc1ccc2c(c1)CCC2)Nc1ccccc1C(F)(F)F
  ·, 2.6, 2.7%, -7.2, 7.4%, 1.6%
Cn1c(=O)c(C(=O)NCCc2ccc(Cl)cc2)c(O)c2ccccc21
  0.3, -0.4, 8.6%, -5.4, 1.3%, -20.0%
COc1ccc(S(=O)(=O)NCCC(=O)N2CCCN(C)CC2)cc1
  ·, 2.2, -1.9%, -2.4, 5.2%, -0.9%
COc1cc(OC)c(NC(=O)CCNS(=O)(=O)c2ccc3c(c2)CC(C)N3C(C)=O)cc1Cl (centres undefined)
  -2.8, 0.5, -0.5%, 3.4, -3.8%, 0.3%
CCn1nc(NC(=O)C2CCCO2)c2cc3cc(C)ccc3nc21 (centres undefined)
  -1.0, 0.4, 10.9%, 1.8, -0.9%, -25.1%
CC(C)(C)NC(=O)CCc1ncc(C(F)(F)F)cc1Cl
  7.7, 9.2, 17.4%[15.4 µM], -3.7, 7.6%, ·
c1ccc(-c2nnc3ccc(N4CCC5(CC4)OCCO5)nn23)cc1
  -1.6, -0.2, ?, 0.4, 8.7%, -1.6%
Cn1c(=O)n(Cc2ccco2)c(=N)c2c3c(sc21)CCCC3
  -0.1, 1.9, 0.5%, 18.1, -12.8%, -1.1%
COCCC(=O)N1CCC(Oc2ccc(C(=O)NCc3csc(C)n3)cc2)CC1
  0.7, 0.4, 9.1%, 65.7, -12.2%, 1.4%
CN(C)S(=O)(=O)c1cccc(NC(=O)c2cncc(Br)c2)c1
  -0.4, 0.1, -6.3%, 13.9, 14.6%, -4.7%
O=c1[nH]cnc2c1ncn2-c1ccc(N(CCO)CCO)cc1
  ·, 0.2, 2.5%, 0.3, -6.0%, -3.3%
CC(C)CN(CC(C)C)S(=O)(=O)N1CCC(C(=O)NCc2ccco2)CC1
  -0.9, -0.1, -34.9%[inhibitor], -0.5, 2.4%, -2.9%

Screens (PubChem BioAssay)
